UCH37 DUB inh – human UCH37 deubiquitinating enzyme inhibition; purified proteasome/UCH37, Ub-AMC cleavage fluorescence; AID 588478; Q9Y5K5; inhibition, % (test concentration not listed); 330,000 compounds, 0.33% hits;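 active means mean of two replicates above 20%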;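 further: 0% = compound-free wells with enzyme and 100% = wells lacking proteasome; stock transfer was 100 nL into about 20 µL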
Target sequence (Q9Y5K5 whole entry, looked up): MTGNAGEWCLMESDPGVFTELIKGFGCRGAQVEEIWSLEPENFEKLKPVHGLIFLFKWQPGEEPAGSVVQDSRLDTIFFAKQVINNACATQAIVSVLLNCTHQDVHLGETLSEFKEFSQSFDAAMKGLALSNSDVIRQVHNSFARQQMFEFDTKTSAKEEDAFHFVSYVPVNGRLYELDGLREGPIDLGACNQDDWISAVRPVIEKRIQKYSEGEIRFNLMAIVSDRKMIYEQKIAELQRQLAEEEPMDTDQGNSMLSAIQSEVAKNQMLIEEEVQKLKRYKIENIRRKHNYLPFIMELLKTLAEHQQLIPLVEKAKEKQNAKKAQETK
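Reagent: Ub-AMC substrate; assay system: Proteasome-associated human UCH37 deubiquitinase; controls: no-proteasome and no-compound wells; read-out: % inhibition of Ub-AMC cleavage fluorescence; timing: 30 min preincubation with enzyme, 25 min cleavage at room temperature; signal: AMC fluorescence from Ub-AMC cleavage, excitation 355 nm, emission 460 nm; buffer or medium: Tris-HCl pH 7.4 plus ovalbumin, ATP-MgCl2, DTT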
E coli growth – blocks Escherichia coli growth; OD600, 23 h; active compounds read low; OD600 absorbance (no concentration beside the values); 330,000 compounds, 0.21% hits; AID 1053175;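 active means OD600 absorbance below the run mean of sample wells minus 3.6 SD, in any replicate, cut at about 0.56 in these data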;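 further: stock transfer was 300 nL into about 60 µL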
The depositor's hits bear a star; i = inactive. Only part of the results is shown, so the mix of outcomes need not match the whole.

Order of values – UCH37 DUB inh	E coli growth
N#CC(=NNc1ccc(S(=O)(=O)N2CCCCC2)cc1)C(N)=S
  16.5	0.71
CCC(C)c1ccc(O)c(C=NO)c1 (stereo not given)
  -1.6	0.718
O=C(CNC(=O)C1COc2ccccc2O1)NN=Cc1ccc([N+](=O)[O-])cc1 (stereo not given)
  7.1	0.627
COc1ccc(-c2cc(C(=O)NN=C(C)c3cccnc3)c3cc(C)ccc3n2)cc1OC
  0.3	0.681
CCn1c2ccccc2c2cc(C=NNC(=O)c3ccccc3C)ccc21
  -34.4	0.689
Cc1cccc(COc2ccc(C=NNC(=O)c3nnn(-c4nonc4N)c3C)cc2)c1
  4.0	0.642
CCCC(=NNC(=O)c1nnn(-c2nonc2N)c1CN1CCCCC1)c1ccccc1
  1.9	0.645
CCOC(=O)C(=NNc1ccccc1)N1CCCc2ccccc21
  2.4	0.665
COc1ccc(CNC(=S)NN=C(C)c2ccc(OC)cc2)cc1
  4.3	0.669
Oc1ccc(C=Nn2c(-c3ccccc3)n[nH]c2=S)cc1Br
  10.7	0.646
CC(=NNC(=S)NCCc1ccccc1)c1ccc(Cl)cc1
  4.2	0.703
CC(=O)Nc1ccc(NC(=O)C(C)ON=Cc2cccc([N+](=O)[O-])c2)cc1 (stereo not given)
  2.7	0.701
COc1ccc2ccccc2c1C=NNC(=O)c1sc(N)c(C#N)c1C
  -30.6	0.664
CCCNC(=O)C(=O)NN=Cc1cccs1
  8.9	0.655
CC(=NO)C(C)(C)Nc1ccccc1F
  2.4	0.676
COc1ccc(Br)cc1C=NNC(=O)CNC(=O)/C=C/c1ccccc1OC
  1.4	0.743
CC(=NO)c1oc2ccc3c(C)cc(=O)oc3c2c1C
  -8.5	0.681
COc1cccc(C(C)=NN=C(C)c2cccc(OC)c2)c1
  1.6	0.725
O=C(O)c1ccc(NN=C/C=C/c2ccccc2[N+](=O)[O-])cc1
  8.2	0.633
CC(=NNC(=O)c1nn(C)cc1Cl)c1ccncc1
  5.2	0.668
O=c1c(=Cc2ccc3c(c2)OCO3)sc2n1CCCN=2
  11.5	0.69
Cn1cccc1C=NNC(=O)c1ccncc1
  13.3	0.685
O=[N+]([O-])c1ccccc1NC(=S)NN=Cc1ccc(O)c(O)c1
  7.7	0.694
COc1cc(C=NNC(=O)Cc2ccccc2)cc(OC)c1OC
  0.8	0.672
COc1ccc(C=NNC(=O)c2ccn[nH]2)cc1Cn1nc(C)c([N+](=O)[O-])c1C
  2.7	0.622
COc1ccc(C=NNC(=O)c2ccccc2O)cc1Cn1nnc2ccccc21
  -45.5	0.622
Oc1ccc(C=NN(c2ccccc2)c2ccccc2)cc1O
  0.8	0.711
CC(=NNC(N)=O)c1cccc(Cl)c1
  0.0	0.682
COc1ccc(C2CC2C(C)=NOC(=O)C2CC2)cc1 (stereo not given)
  2.5	0.719
NC(=O)NN=C/C=C/c1ccc(F)cc1
  2.5	0.685

Next part; it opens with the six that closed the last part.
Order of values – UCH37 DUB inh	E coli growth
COc1ccc(C=NNC(=O)c2ccn[nH]2)cc1Cn1nc(C)c([N+](=O)[O-])c1C
  2.7	0.622
COc1ccc(C=NNC(=O)c2ccccc2O)cc1Cn1nnc2ccccc21
  -45.5	0.622
Oc1ccc(C=NN(c2ccccc2)c2ccccc2)cc1O
  0.8	0.711
CC(=NNC(N)=O)c1cccc(Cl)c1
  0.0	0.682
COc1ccc(C2CC2C(C)=NOC(=O)C2CC2)cc1 (stereo not given)
  2.5	0.719
NC(=O)NN=C/C=C/c1ccc(F)cc1
  2.5	0.685
Cc1ccc(C=NNC(=O)C(C)Oc2ccccc2[N+](=O)[O-])s1 (stereo not given)
  5.7	0.597
CC(=NO)C1(C)N(O)C(C)(C)C(c2ccc(Br)cc2)=[N+]1[O-] (stereo not given)
  -2.7	0.654
NC(=O)NN=Cc1ccc(-c2ccc(S(=O)(=O)Nc3ncccn3)cc2)o1
  -26.8	0.683
O=[N+]([O-])c1ccccc1C=NNc1nnc(-c2ccccc2)c(-c2ccccc2)n1
  7.9	0.701
CC1(C)C(c2cccs2)=[N+]([O-])C2(CCCCCC2=NNC(N)=S)N1O (stereo not given)
  -4.6	0.72
Cc1cc(NN=Cc2ccncc2)nc2ccccc12
  2.8	0.627
COc1ccc(C=NNC(=O)CCc2c(C)n[nH]c2C)cc1O
  2.5	0.699
O=C(CNc1ccccc1)NN=Cc1c[nH]c2ccccc12
  2.3	0.717
Cc1ccsc1C=Nn1c(-c2ccccn2)n[nH]c1=S
  5.7	0.67
COc1ccccc1C(=O)NN=Cc1cnc2ccccc2n1
  13.8	0.692
COc1ccc(C=NNC(=O)c2ccccc2)cc1COc1ccc(F)cc1
  2.6	0.694
CC(=NNc1ccc([N+](=O)[O-])cc1)c1ccc2c(c1)OCO2
  3.0	0.727
CCCCCOc1ccc(C(C)=NNC2=NCCN2)cc1
  4.5	0.627
CON=Cc1ccc(Oc2ccc(C)cc2)c([N+](=O)[O-])c1
  1.7	0.683
O=C(NN=C/C=C/c1ccco1)/C(=C/c1ccccc1)NC(=O)c1ccccc1
  5.0	0.72
Nc1c(C(=O)NN=Cc2ccc([N+](=O)[O-])cc2)sc2nnc(-c3ccccc3)c(-c3ccccc3)c12
  6.9	0.672
COc1ccc(C=NNC(=O)C(=O)NCc2cccnc2)cc1
  4.2	0.705
C(=Nn1cnnc1)c1ccc(OCc2cccc3ccccc23)cc1
  2.2	0.741
CCN(CC)c1ccc(C=NNC(=O)Cc2cccs2)c(O)c1
  -12.1	0.646
CNC(=S)NN=C(C)c1ccccc1
  6.2	0.653
Cc1cc(C(=O)NN=Cc2cccnc2)n[nH]1
  0.6	0.691
CC(=NNC(=O)c1ccc(Cl)cc1)c1cccs1
  4.4	0.692
COc1ccc(N(CC(=O)NN=Cc2ccco2)S(=O)(=O)c2ccccc2)cc1Cl
  4.0	0.713
Cc1ccccc1C(=O)Nc1ccc(C(=O)NN=Cc2ccc(F)cc2)cc1
  2.8	0.689
NC(=NOC(=O)c1cccc2ccccc12)c1cccc([N+](=O)[O-])c1
  0.9	0.712
CCN(CC)c1ccc(C=NN2CCN(Cc3cccc4ccccc34)CC2)c(O)c1
  6.6	0.717
O=[N+]([O-])c1ccccc1C=Nn1c(C(F)(F)F)n[nH]c1=S
  3.7	0.716
O=C(O)c1ccc(C=NNC(=S)NC2CCCCC2)cc1
  5.1	0.738
Cc1ccccc1C=Nn1c(-c2cc(-c3ccccc3)n[nH]2)n[nH]c1=S
  2.6	0.731
Cc1ccccc1NCC(=O)NN=Cc1c(C)c(C(=O)c2ccc(Cl)cc2)n2ccccc12
  5.0	0.679
COc1ccc(OC)c(C=NN(CCC#N)C2=NS(=O)(=O)c3ccccc32)c1
  -10.0	0.644
Cc1c(NC(=S)NN=Cc2cc([N+](=O)[O-])ccc2O)c(=O)n(-c2ccccc2)n1C
  12.3	0.675
NC(=O)c1cc2ccccc2oc1=NNC(=O)c1ccco1
  11.0	0.722
O=C(NN=Cc1ccc(F)cc1)c1ccc(Cn2cc(Br)c([N+](=O)[O-])n2)o1
  6.4	0.653
Cc1ccc(NC(=O)CC2S/C(=N/N=Cc3c[nH]c4ccccc34)NC2=O)cc1 (stereo not given)
  -20.0	0.733
CC(=O)c1cccc(NC(=O)CON=C2CCCc3nonc32)c1
  1.3	0.714
ON=Cc1ccc(OCc2ccccc2F)c(Cl)c1
  2.4	0.661
COc1ccc(C=NNC(=O)c2cccc(C(=O)NN=Cc3ccc(OC)cc3)n2)cc1
  i	0.703
COc1ccccc1NC(=O)C(=O)NN=C(C)CC(=O)Nc1ccccn1
  -1.0	0.652
NS(=O)(=O)c1ccc(-c2ccc(C=NNC(=O)c3ccccc3O)o2)cc1
  -43.2	0.653
COc1ccc(C=NOCC(=O)Nn2c(C)nc3ccccc3c2=O)cc1
  4.1	0.716
O=c1c2ccccc2nc(COc2ccccc2)n1N=Cc1c[nH]c2ccccc12
  -3.3	0.722
COc1ccccc1C(=O)NN=C(C)CC(=O)Nc1ccccc1NC(C)=O
  1.7	0.665
O=C(O)CCC(=NNC(=O)c1ccccc1Br)c1ccccc1
  3.2	0.695
Cc1ccn2c(C(=O)NN=Cc3ccc4c(c3)OCO4)c(C)nc2c1
  5.6	0.697
CC(=NNC(=O)C(=O)Nc1cc(Cl)ccc1Cl)c1ccncc1
  3.9	0.685
O=C(CC(=O)NN=Cc1ccc(Cl)cc1Cl)NCc1ccccc1
  2.8	0.7
Cc1occc1C(=O)NN=Cc1ccc(OCc2ccccc2)cc1
  3.7	0.648
O=C(CNC(=O)c1ccco1)NN=Cc1cc(Br)ccc1O
  -10.8	0.666
CC(=NNC(=O)c1cc(C2CC2)[nH]n1)c1cccs1
  8.6	0.692
CCc1n[nH]c(=S)n1N=Cc1c[nH]c2ccc(Br)cc12
  6.3	0.703
CCOC(=O)NN=Cc1ccc(-c2cccc(C(F)(F)F)c2)o1
  2.3	0.688
C/C(C=Nn1c(COc2ccccc2)n[nH]c1=S)=C\c1ccccc1
  6.1	0.718
CC(=NNC(=O)CNC(=O)c1cccc(F)c1)c1ccc2c(c1)CCCC2
  2.8	0.663
Cc1ccc(N(CC(=O)NN=Cc2cc(C)n(-c3ccccc3C)c2C)S(C)(=O)=O)cc1
  -0.6	0.666
CC(=NNC(=O)c1ccc(C)s1)c1cccnc1
  2.7	0.666
COc1ccccc1N1CCN(N=Cc2ccc(C)o2)CC1
  2.7	0.73
O=C(NN=Cc1cccs1)c1cnccn1
  12.7	0.645
O=C(NN=C/C(Br)=C\c1ccccc1)c1n[nH]c2c1CCC2
  3.9	0.619
COc1ccc(C=NNC(=O)c2ccc(CSc3nc(C)cc(C)n3)cc2)cc1O
  2.1	0.732

Single records (already shown):
COc1ccc(C=NNC(=O)c2cccc(C(=O)NN=Cc3ccc(OC)cc3)n2)cc1 across the screens: UCH37 DUB inh = i; E coli growth = 0.703
Cc1c(NC(=S)NN=Cc2cc([N+](=O)[O-])ccc2O)c(=O)n(-c2ccccc2)n1C across the screens: UCH37 DUB inh = 12.3; E coli growth = 0.675

The list goes on:
Order of values – UCH37 DUB inh	E coli growth
Cc1ccc(S(=O)(=O)c2c(N)n(N=Cc3ccco3)c3nc4ccccc4nc23)cc1
  -143.2	0.689
CCCCNC(=S)NN=C1CCCCc2ccccc21
  0.4	0.666
COc1cc(C=NNC(=O)c2[nH]nc3c2CCc2ccccc2-3)ccc1O
  -1.7	0.714
CC(=NOC(=O)c1c(-c2c(F)cccc2Cl)noc1C)c1nccs1
  0.9	0.671
CC(CC(=O)C(F)(F)F)=NNC(=O)/C(C#N)=C/N(C)C
  0.8	0.603
Cn1c(=O)c2c(ncn2CCC(=O)NN=Cc2cccnc2)n(C)c1=O
  5.0	0.652
CC1CCCC=CC(=O)c2c(O)cc(O)cc2CC(=O)O1 (stereo not given)
  2.5	0.704
CCCCOc1ccccc1C=NNC(=O)CC#N
  3.0	0.707
COc1ccc(S(=O)(=O)ON=C2CCSc3ccc(C)cc32)cc1
  1.0	0.685
O=C(CC1N=C(Cc2ccccc2)NNC1=O)NN=Cc1ccc([N+](=O)[O-])cc1 (stereo not given)
  10.4	0.712
Cc1ccc(C=NNC(=O)Cc2noc3ccccc23)cc1
  -0.9	0.722
O=C(O)c1cccc(-c2ccc(C=Nn3cnc4sc5c(c4c3=O)CCCC5)o2)c1
  7.3	0.66
Cn1c(CS/C(N)=N/N=Cc2ccccc2)c(Br)c(=O)n1-c1ccccc1
  14.2	0.656
CCN(CC)C(=NS(=O)(=O)c1ccccc1C)c1ccccc1
  4.2	0.701
O=[N+]([O-])c1ccc(C2CCCCC2=NOCc2ccccc2F)c([N+](=O)[O-])c1 (stereo not given)
  2.3	0.715
CCOc1ccc(C(C)=NNC(=O)C(OC)c2ccccc2)cc1 (stereo not given)
  -1.4	0.703
Cc1ccc(C)c(C=Nn2cc(-c3ccccc3)[nH]c2=S)c1
  -14.2	0.698
Cc1nn(-c2ccccc2)c(C)c1C=NO
  0.4	0.747
O=C(O)COc1ccccc1C=NNC(=O)CN1CCN(Cc2ccc(Cl)cc2)CC1
  3.3	0.688
CC(=NNC(=O)c1ccc(C(C)(C)C)cc1)c1ccccn1
  2.0	0.643
Cc1ccc2occ(C=NNC(=O)c3ccc(O)cc3)c(=O)c2c1
  -21.8	0.681
CC(C)(Cc1ccc(O)cc1)NC(=O)CC(=O)NN=Cc1ccc([N+](=O)[O-])cc1
  7.2	0.631
COc1cccc(C=NNC(=O)CNC(=O)CCc2ccccc2)c1O
  -3.1	0.648

Screens (PubChem)
